Bioassay records (PubChem)
Ab BasE inh = BasE siderophore enzyme inhibitors, primary screen, biochemical, Acinetobacter baumannii ATCC 17978, fluorescence polarization. purified BasE, fluorescence polarization binding displacement. AID 485350, 2010. inhibition, % (test concentration not listed). actives 0.1% (n = 84,000);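 active = both replicates above 25% with normal brightness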;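 also: 0% = negative plate control signal and 100% = positive plate control signal; stock transfer was 100 nL into about 30 µL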
KSHV LANA nucl = inhibitors of KSHV LANA-nucleosome binding, primary screen, biochemical, fluorescence polarization, FITC-LANA1-23, chicken nucleosomes; FITC-LANA1-23 / chicken nucleosome fluorescence polarization; active compounds read low; z-score (no concentration beside the values); actives 0.3% (n = 51,000); AID 720717, 2013;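 active = both repeat wells score below -2 in polarization z-score versus plate sample wells, excluding overly bright wells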;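 also: 100 nL library stock added to about 30 µL; numbers are from one replicate; some results filed as inactive read as strong as hits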
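System – purified chicken nucleosomes with FITC-labelled LANA N-terminal peptide (1-23) · Amount – 240 nM purified chicken nucleosomes (480 nM peptide binding sites), final · Also added – 50 nM FITC-LANA1-23 probe · Medium – TEN-BT buffer, pH 7.5 · Incubation – compound with peptide–nucleosome mix 10–45 min at room temperature · Detection – fluorescence polarization, ex 480 nm, em 535 nm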
* = called active by the depositor; / = not tested or not shown. The list is partial. The share of hits here may be higher or lower than overall.

SMILES | Ab BasE inh | KSHV LANA nucl
CCC(=O)NC1CC(=O)N(c2ccc(F)cc2)C1 (stereo not given) | 2.5 | -0.098
c1ccc(-c2nnc(-c3ccncc3)o2)cc1 | -1.4 | -0.35
CCOC(=O)CSc1nc(C#N)c(SCC(=O)OCC)s1 | 1.3 | 0.27
O=C(Nc1cccnc1)C12CC3CC(CC(C3)C1)C2 | -1.2 | -0.78
CC(=O)Nc1cccc(SC(F)(F)F)c1 | -3.8 | 2
NCCNC(=O)c1ccncc1 | -0.7 | -0.62
NNC(=O)COc1ccccc1F | 2.6 | /
Cc1cc(C(=O)CSc2nncs2)c(C)n1CC1COc2ccccc2O1 (stereo not given) | 2.2 | /
CCc1nc2ccccc2c(NC(=O)CN2CCCCC2)c1C | 1.3 | 0.24
Cc1ncc(NS(=O)(=O)c2ccc(NC(=O)NC3CCCCC3)cc2)c(C)n1 | -0.8 | /
Nn1c(SCC(=O)N(C2CCCC2)C2CCS(=O)(=O)C2)nnc1C(F)(F)F (stereo not given) | 1.4 | /
N#CCn1c(CN2CCN(c3cccc(C(F)(F)F)c3)CC2)nc2ccccc2c1=O | 2.5 | /
CC(C)CC(NC(=O)c1ccccc1Cl)C(=O)O (stereo not given) | 4.6 | -0.6
COc1cc(C2c3c(oc4ccc(F)cc4c3=O)C(=O)N2CC2CCCO2)ccc1O (stereo not given) | 2.8 | -0.5
O=C(CN1CC(=O)Nc2ccccc21)Nc1ccc(N2CCCCC2)cc1 | 1.1 | /
CC1CCCN(C(=S)NC2CCCC2)C1 (stereo not given) | 1.0 | -0.71
O=C(C1=C(c2ccccc2)C(=O)c2ccccc2C1=O)c1ccccc1 | 0.0 | /
O=C(CN1CCN(c2ccccc2)CC1)N1CCc2ccccc21 | / | 0.22
CCOC(=O)N1CCN(C(=S)Nc2ccc3nsnc3c2)CC1 | 2.6 | -1.3
O=C(OCC(=O)c1cccs1)c1cccc(C(=O)OCC(=O)c2cccs2)n1 | 0.3 | -0.055
COc1ccc(OC)c(NC(=O)CSc2nnc(CNc3ccc(C)cc3C)n2CC2CCCO2)c1 (stereo not given) | 0.1 | -0.57
COC(=O)C1=CN(C(C)C)C=C(C(=O)OC)C1c1ccccc1Cl | 0.2 | -0.34
C=CCn1c(C(NC(=O)c2ccc(Cl)cc2Cl)C(C)C)n[nH]c1=S (stereo not given) | 0.6 | 0.4
CC(C)n1c(O)c(N=NC(=O)c2ccc3c(c2)OCO3)c2ccccc21 | 1.1 | /
S=c1[nH]nc(-c2ccc(Cl)cc2)n1C1CCCCC1 | -4.3 | 1.4
SMILES | Ab BasE inh | KSHV LANA nucl
CCOc1cc(N2CCOCC2)c(OCC)cc1NC(=O)Cc1c[nH]c2ccccc12 | -0.1 | /
O=C(O)CON=C1C2CC3CC(C2)CC1C3 | 2.7 | /
CC(C)C(NC(=O)Nc1ccc(Cl)cc1)C(C)C | -2.4 | 0.17
CCn1nnc2cc(C(=O)NCC(c3ccccc3OC)N(C)C)ccc21 (stereo not given) | 0.4 | /
CCc1cc(C(=O)c2ccc(OC)cc2)c(NC(=O)c2ccc(C(F)(F)F)cc2)s1 | 1.7 | /
COc1ccc(CC(=O)OCC(=O)c2ccccc2)cc1OC | 1.1 | /
CCO/C=N/c1oc(C)c(C)c1C#N | -1.5 | 0.53
O=C(CN1CCCCC1)Nc1ccccc1-c1nc2ccccc2[nH]c1=O | -1.5 | 0.41
Cc1c(C(=O)Nc2ccc(F)cc2)oc2ccc3c(c12)C(=O)CC(C)(C)O3 | -2.5 | 0.32
CCOCCC(=O)N1CCC(C(=O)OCC)CC1 | 0.1 | -0.45
Nc1cccc(C(=O)Nc2ccccc2N)c1 | 3.1 | 0.31
O=C1c2ccccc2C(=O)N1CCSc1ccccc1 | -1.2 | -0.23
CCOC(=O)c1cnc(N2CCOCC2)nc1N | -0.8 | /
O=C(CN1CCN(S(=O)(=O)c2ccc3c(c2)OCCO3)CC1)NC1CCCc2ccccc21 (stereo not given) | 1.1 | /
O=C(O)Cc1nc2ccccc2s1 | 2.9 | /
N#CCCn1cc(CO)c(-c2ccccc2)n1 | -0.4 | 0.037
O=C(Cn1c(=O)n(Cc2ccco2)c(=O)c2sc3ccccc3c21)Nc1ccccc1 | -3.7 | 0.57
COC(=O)c1sc(=S)n(C)c1C | 2.6 | /
Cc1cc(=O)[nH]c(SCc2nnc(-c3ccccc3)o2)n1 | 1.1 | 0.25
CCOC(=O)/C(=N\O)c1c(C)nn(C)c1C | 1.3 | /
CCOc1ccc(C(=O)N2CCC(C)CC2)cc1 | -2.8 | -0.98
Cc1ccc(=O)n(Cc2ccc(F)cc2)n1 | -0.9 | -0.34
COc1cc(NC(C)C(=O)N(C)c2ccccc2)cc(OC)c1OC (stereo not given) | 1.2 | /
Cc1nc2c(c(C)nn2C(C)(C)C)c(C)c1CCC(=O)Nc1ccccc1 | 0.2 | 2.4
Cc1ccc(N2C(=O)C(C)N=C2N2CCN(c3ccccc3)CC2)cc1 (stereo not given) | 3.0 | 0.47
SMILES | Ab BasE inh | KSHV LANA nucl
Cc1cc(C)c(-n2nnnc2SCC(=O)c2cc3ccccc3o2)c(C)c1 | -0.7 | 0.4
COC(=O)C1OC=C(C)C2CN3CCC4c5ccccc5NC4CC3CC21 (stereo not given) | 0.0 | -1.4
O=C(Nn1cnc2c(cnn2-c2ccccc2)c1=O)C1CCCC1 | -2.6 | -1.8
CCCn1nnnc1SCC(=O)c1ccccc1 | -5.5 | 1.7
COCCNS(=O)(=O)c1c(C)nc2sccn2c1=O | 0.9 | -1.1
Cc1c(C)n(C(=O)CSC(=S)N2CCOCC2)c2ccccc12 | -1.4 | -0.54
N#Cc1nc(-c2cccs2)oc1N1CCCC1 | -2.7 | 2
COc1ccc(NS(=O)(=O)c2ccc3oc(SC/C(O)=C(\C#N)c4nc5ccccc5s4)nc3c2)cc1 | 1.7 | /
O=C(CN1CCCCC1)N1CCCC(c2nc3sc4c(c3c(=O)[nH]2)CCCC4)C1 (stereo not given) | -5.0 | 0.64
CC1CCN(CC(=O)Nc2sccc2C#N)CC1 | 1.0 | /
Cc1ccc(C)c(C(=O)COC(=O)c2n[nH]c3ccccc23)c1 | -1.5 | /
O=c1c(-c2ccccc2)coc2cc(OCc3ccccc3F)ccc12 | -3.7 | /
O=C1Nc2cc(C(=O)N3CCN(c4ccccn4)CC3)ccc2S/C1=C\c1ccccc1 | -1.4 | 0.16
CC(C)(CC(=O)O)CC(=O)Nc1ccc(F)cc1 | -0.2 | -0.46
CN(Cc1ccccc1)C(=O)c1cccc(-c2nnc(-c3ccccc3)o2)c1 | 1.7 | -0.45
c1ccc(NC2=NCCCCS2)cc1 | -0.7 | 1.4
N#Cc1ccc(NC(=O)CCC(=O)c2cccs2)cc1 | -2.4 | /
CC1CC1c1ccc(CCC(=O)Nc2ncc(Cc3cccc(Cl)c3)s2)o1 (stereo not given) | -1.6 | /
CCOc1ccc(N(CC)c2nc(-c3cc(OC)ccc3OC)no2)cc1 | 2.6 | 0.83
CC(=O)[C@@]1(O)CC[C@H]2[C@@H]3C[C@H](C)C4=CC(=O)C=C[C@]4(C)[C@@]3(F)[C@@H](O)C[C@@]21C | 1.2 | -0.15
CC1CN(C(=S)c2ccccc2)CC(C)O1 (stereo not given) | 3.8 | 0.32
CCOC(=O)c1ccc(N=C2N=C(N)c3ccccc32)cc1 | 1.0 | /
Cc1nn(-c2ccc(F)cc2)c(Cl)c1C(=O)N1CCN(c2ncccn2)CC1 | 0.2 | /
CCNCC(=O)Nc1nnc(-c2ccccc2)o1 | -0.3 | /
COc1ccc(F)cc1CN1CCN(CC(=O)c2c(C)[nH]c3ccccc23)CC1 | 2.3 | /
SMILES | Ab BasE inh | KSHV LANA nucl
O=C1COc2ccc(C(=O)COC(=O)c3cc(S(=O)(=O)NCc4ccccc4)ccc3O)cc2N1 | 1.6 | /
O=C(CSc1nc(-c2cccs2)nc2ccccc12)N1CCNC1=O | 1.7 | /
NNc1ccc2c(C(F)(F)F)cc(C(F)(F)F)nc2n1 | / | 0.33
CC1CCCN(Cn2nnc3ccccc3c2=O)C1 (stereo not given) | 0.1 | /
CN(C)/C=C1\CCCc2ccccc2C1=O | 2.0 | -0.31
NCCCC(=O)N1c2ccccc2Sc2ccccc21 | -5.2 | 0.32
CC1(C)CC(=O)C(CC(=O)NC(=O)NCc2ccccc2)=C(O)C1 | 0.0 | /
O=C(CC1Sc2ccccc2NC1=O)OCc1nc2scc(-c3ccco3)c2c(=O)[nH]1 (stereo not given) | 0.1 | /
CCCNC(=O)CCc1c(C)n(CC)c2cc(-c3ccccc3OC)nn2c1=O | -0.5 | 0.47
O=C(O)CNC(=O)c1cccc(Br)c1 | 0.7 | /
CC1=NN(C(=O)CC#N)C(O)(c2ccccc2)C1 (stereo not given) | 2.1 | -0.87
O=C(NO)c1nc[nH]c1C(=O)NO | -2.3 | 0.075
O=C(CBr)c1ccc2ccccc2c1 | / | 0.56
CC1CCN(C(=O)Cn2cc(C(=O)C3CC3)c3ccccc32)CC1 | 0.9 | -0.28
O=C(Cc1ccc2c(c1)CCCC2)N1CCN(c2ncccn2)CC1 | -1.6 | /
CCn1c(CCNC(=O)C2CCCO2)nnc1SC (stereo not given) | -0.2 | -0.59
CN(C)/C=C1/C=C(c2ccccc2)OC1=S | 2.2 | /
COC(=O)c1c(-c2c(Cl)cccc2Cl)noc1NC(=O)NCc1cccs1 | 0.8 | -0.81
O=C(Nc1ccccc1C(=O)O)c1ccc(CN2CCOCC2)cc1 | -0.7 | /
Cc1ccc(C(=O)CSc2nnc3nc(C)cc(C)n23)cc1 | 1.3 | /
Clc1ccc(-c2n[nH]c3c2CCCC3)cc1 | / | -0.48
COc1ccc(CCNC(=O)C2CCN(C(=O)N(C)C)CC2)cc1OC | 1.9 | -0.64
CCSc1n[nH]c(-c2cccs2)n1 | 0.6 | /
CC(NS(=O)(=O)c1ccccc1)c1nc(-c2ccccc2)no1 (stereo not given) | -1.5 | 2.7
Cc1ccc(NS(C)(=O)=O)c(C)c1 | 1.1 | 1.1
SMILES | Ab BasE inh | KSHV LANA nucl
CCn1c(C)nc2cc(C(=O)OCCC(F)(F)F)ccc21 | -7.9 | /
Cc1cc(C)c(C#N)c(N2CCN(CCOc3ccc(Cl)cc3)CC2)n1 | 0.0 | 1.1
CN(Cc1ccccc1)Cc1ccccc1O | 1.1 | 0.32
CC1CSC(N(C(=O)CN2C(=O)COc3ccccc32)c2ccc(Cl)cc2)=N1 (stereo not given) | -3.4 | /
Cc1nc2sc3c(c2c(=O)n1O)CCCC3 | -2.5 | -1.3
CN(CC(=O)Nc1cccc2nsnc12)c1ccccc1 | 0.8 | /
COc1ccccc1NS(=O)(=O)c1cccc(C(=O)N/N=C/c2ccc(C)o2)c1 | 1.5 | /
O=C(O)c1cccnc1Sc1ccccc1Cl | 3.8 | /
COc1ccc2oc(=O)c(C(=O)NCCN3CCOCC3)cc2c1 | 0.1 | -0.3
CCN(CC)C(=O)c1ccc(CS(=O)c2cccc(Cl)c2)o1 (stereo not given) | -2.2 | 0.57
COCCn1c(O)c(/C=N/NS(=O)(=O)c2ccc(C)cc2)c(=O)[nH]c1=S | -0.2 | /
O=S1(=O)NC(=NC2CCCc3ccccc32)c2ccccc21 (stereo not given) | -5.0 | /
COc1ccccc1Oc1ncnc2c1oc1ccccc12 | -1.8 | /
NNC(=O)c1cccc(S(=O)(=O)Nc2ccccc2Cl)c1 | 1.7 | /
O=C1C(=O)N(c2ccccn2)C(c2ccccc2)/C1=C(/O)c1ccccc1 (stereo not given) | 1.8 | 0.2
COc1ccc(S(=O)(=O)N(C)C2CCCCC2)cc1 | 2.2 | -0.36
Cc1cc(-c2ccccc2)nn1C(CC(=O)O)C(=O)O (stereo not given) | 2.4 | /
N#C/C(=C\N1CCN(c2ccccc2)CC1)S(=O)(=O)c1ccccn1 | -0.7 | -1.3
CC(=O)NNc1ncc(C(F)(F)F)cc1Cl | -0.2 | -0.2
Cc1cc(C)cc(Oc2ccccc2/C=N\O)c1 | / | 0.16

Compounds shown so far that contain an NH in an aromatic ring, in the order listed:
SMILES | Ab BasE inh | KSHV LANA nucl
C=CCn1c(C(NC(=O)c2ccc(Cl)cc2Cl)C(C)C)n[nH]c1=S (stereo not given) | 0.6 | 0.4
S=c1[nH]nc(-c2ccc(Cl)cc2)n1C1CCCCC1 | -4.3 | 1.4
CCOc1cc(N2CCOCC2)c(OCC)cc1NC(=O)Cc1c[nH]c2ccccc12 | -0.1 | /
O=C(CN1CCCCC1)Nc1ccccc1-c1nc2ccccc2[nH]c1=O | -1.5 | 0.41
Cc1cc(=O)[nH]c(SCc2nnc(-c3ccccc3)o2)n1 | 1.1 | 0.25
O=C(CN1CCCCC1)N1CCCC(c2nc3sc4c(c3c(=O)[nH]2)CCCC4)C1 (stereo not given) | -5.0 | 0.64
Cc1ccc(C)c(C(=O)COC(=O)c2n[nH]c3ccccc23)c1 | -1.5 | /
COc1ccc(F)cc1CN1CCN(CC(=O)c2c(C)[nH]c3ccccc23)CC1 | 2.3 | /
O=C(CC1Sc2ccccc2NC1=O)OCc1nc2scc(-c3ccco3)c2c(=O)[nH]1 (stereo not given) | 0.1 | /
O=C(NO)c1nc[nH]c1C(=O)NO | -2.3 | 0.075
Clc1ccc(-c2n[nH]c3c2CCCC3)cc1 | / | -0.48
CCSc1n[nH]c(-c2cccs2)n1 | 0.6 | /
COCCn1c(O)c(/C=N/NS(=O)(=O)c2ccc(C)cc2)c(=O)[nH]c1=S | -0.2 | /
